Bioassay records as filed in PubChem BioAssay.
Marburg entry inh = qHTS for inhibitors of binding or entry into cells for Marburg Virus. Marburg virus pseudotyped entry inhibition, cell reporter; control for the full effect not named in the record; about a third of the inactives were read at about 46 µM. Potency, µM (series often up to 37.8 µM), without a hit: at the top dose activity change, negative = inhibition, usual class: inhibitors. 300,000 tested, 1.8% active. AID 540276, 2011; active = well fitted inhibition curve with a large enough effect; inconclusive = small, poorly fitted or top-dose-only effect, or effect the other way; inactive = flat fitted curve, though single readings scatter; tested in HEK293 cells; about a fifth of its hits are not listed in these tables; also: % is scaled to controls: 0 for no effect and ±100 for the full control effect; luciferase read-out
Lassa entry inh = qHTS for Inhibitors of binding or entry into cells for Lassa Virus. AID 540256, 2011. 300,000 tested, 1.2% active. Potency, µM (doses to about 37.9 µM), without a hit: at the highest dose activity change, negative = inhibition, actives largely listed as inhibitors. Lassa virus pseudotype entry inhibition, cell reporter; control for the full effect not named in the record; active means well fitted inhibition curve with a large enough effect; inconclusive means small, poorly fitted or top-dose-only effect, or effect the other way; inactive means flat fitted curve, though single readings scatter; tested in HEK293 cells; also: % is scaled to controls: 0 for no effect and ±100 for the full control effect; nearly all actives have a fitted effect of over 50% in size; luciferase read-out
RE007 growth inh = qHTS Assay for Inhibitors of the HIV-1 protein Vpr | S. pombe RE007 Vpr strain, BacTiter-Glo ATP luminescence, 24 h; control for the full effect not named in the record | Potency, µM (doses to about 92.2 µM), for inactives: top-dose activity change, negative = less growth | 360,000 tested, 0.21% active | AID 651644, 2012; active = well fitted falling curve with a large enough effect; inconclusive = small, poorly fitted or top-dose-only effect; inactive = no such curve, though single readings can be large or run the other way;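 also: % is scaled to controls: 0 for no effect and ±100 for the full control effect; nearly all actives have a fitted effect of over 50% in size; the assay follows cell death caused by Vpr and the record does not say whether a fall means rescue or toxicity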
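Fission yeast strain RE007, carrying one chromosomally integrated HIV-1 vpr copy, was seeded at OD 0.01 in PMG+AL medium with 23 nL pinned compound. After 24 h at 30 °C and 99% humidity, viability was read by BacTiter-Glo luminescence.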
Cruzain Triton = qHTS Assay for Promiscuous and Specific Inhibitors of Cruzain (with detergent). Potency, µM, for inactives: max response, negative = inhibition, actives largely listed as inhibitors. purified cruzain, Z-FR-AMC fluorescence, 0.01% Triton. 200,000 tested, 0.43% active. Cruzipain (Trypanosoma cruzi), P25779. AID 1478, 2009;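 also: plate controls were neutral wells for no effect and buffer without enzyme for full effect; nearly all actives have a fitted effect of over 40% in size; top concentration of the series not given in the record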
Target sequence (P25779 123-467 limits assumed): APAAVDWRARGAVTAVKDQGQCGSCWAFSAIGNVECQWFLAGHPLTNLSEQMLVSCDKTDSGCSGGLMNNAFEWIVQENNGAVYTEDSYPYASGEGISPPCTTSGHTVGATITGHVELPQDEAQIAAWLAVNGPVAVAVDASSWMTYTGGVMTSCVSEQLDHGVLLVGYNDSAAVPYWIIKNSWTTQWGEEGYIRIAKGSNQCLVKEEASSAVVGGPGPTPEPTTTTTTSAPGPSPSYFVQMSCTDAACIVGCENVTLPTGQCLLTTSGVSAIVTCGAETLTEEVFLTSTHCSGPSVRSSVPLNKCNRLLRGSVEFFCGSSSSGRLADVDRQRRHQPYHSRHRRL
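Purified cruzain (1.5 nM final) was preincubated with compounds for 15 min at room temperature in 100 mM sodium acetate pH 5.5, 5 mM DTT, 0.01% Triton X-100. Reaction started with 2 uM Z-FR-AMC; AMC fluorescence change over 60 s gave activity.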
Cruzain noTriton = qHTS Assay for Promiscuous and Specific Inhibitors of Cruzain (without detergent) | Cruzipain (Trypanosoma cruzi), P25779 | purified cruzain, Z-FR-AMC fluorescence, no detergent | Potency, µM, inactives show max response, negative = inhibition, usual class: inhibitors | 200,000 tested, 2.3% active | AID 1476, 2009;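 also: plate controls were enzyme without inhibitor for no effect and buffer without enzyme for full effect; nearly all actives have a fitted effect of over 40% in size; top concentration of the series not given in the record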
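Purified cruzain at 1.5 nM, pre-incubated 15 min with compound at room temperature in 100 mM sodium acetate pH 5.5, 5 mM DTT, 0.00005% Triton X-100. Reaction started with 2 uM Z-FR-AMC; AMC fluorescence increase over 60 s gives rate.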
StopGo reporter = High Throughput Screening for Foot and Mouth Disease Virus Antivirals. human cells with a luciferase reporter of 2A StopGo recoding; control for the full effect not named in the record. Potency, µM (series often up to 57.9 µM), for the others: at the top dose signal change, negative = less light. 410,000 tested, 1.2% active. AID 1159524, 2015; active = well fitted falling curve with a large enough effect; inconclusive = small, poorly fitted or top-dose-only effect; inactive = no such curve, though single readings can be large or run the other way; tested in HEK293T cells; also: % is scaled to controls: 0 for no effect and ±100 for the full control effect; nearly all actives have a fitted effect of over 45% in size; luciferase light after 4 h
SARS PLP yeast = qHTS of Yeast-based Assay for SARS-CoV PLP; Potency, µM (doses to about 32.9 µM), without a hit: at the highest dose activity, positive = growth rescue; S. cerevisiae expressing SARS-CoV PLpro, growth rescue; control for the full effect not named in the record; AID 485353, 2010; 330,000 tested, 0.19% active; active means well fitted rising curve with a large enough effect; inconclusive means small, poorly fitted or top-dose-only effect; inactive means no such curve, though single readings can be large or run the other way; also: 0% is about no effect; nearly all actives have a fitted effect of over 55% in size; growth read by luminescence after 48 h
NS1 inh = qHTS Assay for Inhibitors of Influenza NS1 Protein Function; 270,000 tested, 0.4% active; Potency, µM (highest dose often 46.1 µM), for the others: at the top dose activity, positive = more growth; S. cerevisiae slowed by influenza A NS1, growth recovery by OD600; active means well fitted rising curve with a large enough effect; inconclusive means small, poorly fitted or top-dose-only effect; inactive means no such curve, though single readings can be large or run the other way; also: nearly all actives have a fitted effect of over 50% in size
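S. cerevisiae expressing influenza A NS1, grown in glucose, washed, then diluted 1:100 into pH 6.0 -URA galactose medium with 23 nl compound. Growth recovery read as OD600; NS1-free strain serves as control.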
* marks the source's active call; other numbers are inactive results; ? = inconclusive; / = no result given; [ ] = another dose, or the depositor's remark. Unless noted, calls follow the shape of the dose curve; as a rule, active = well fitted curve in the direction sought with a large enough effect; inconclusive = small, poorly fitted or top-dose-only effect, or another doubt; inactive = no such curve, though single readings can be large; an effect the other way counts as inactive or inconclusive. Potency is read from the fitted curve at half-maximal effect.

Structure	NS1 inh	Cruzain noTriton	Marburg entry inh	RE007 growth inh	Lassa entry inh	SARS PLP yeast	StopGo reporter	Cruzain Triton
C=C1c2ccccc2NC(=O)N1c1ccc(C)cc1	-3%	1%	14%[46.1 µM]	-11%	9%	7%	5%	5.8%
CC(=O)c1c[nH]c(C(=O)Nc2ccc(N3CCCCCC3)cc2)c1	/	/	0%	-3%	-7%	-1%	-24%	/
O=C(O)CCC(=O)Nc1cccc(-c2csc(-c3ccccc3)n2)c1	/	/	?	4%	?	-1%	-21%	/
Cc1ccc(-c2csc3n[nH]c(=S)n23)cc1	-52%	-12%	2%	12%	4%	8%	5%	-0.8%
O=C(CNC(=O)c1cccs1)NCC(=O)OCc1ccccc1Cl	2%	-18%	-1%	0%	22%	8%	/	2.7%
C=CCSc1nc2c(c(=O)[nH]c(=O)n2C)n1Cc1ccccc1	-4%	/	/	2%	/	3%	?	/
Cc1cc(C(=O)N/N=C/c2sc(N3CCOCC3)nc2-c2ccccc2)c(C)o1	0%	/	?	-23%	-6%	-2%	4%	/
CC(CN1CCOCC1)OC(=O)Cc1ccc(Cl)cc1 (stereo not drawn)	/	/	-5%[46.1 µM]	-11%	-12%	0%	4%	/
CC(C)C(=O)OC1CCS(=O)(=O)c2sccc21 (stereo not drawn)	2%	/	-15%[46.1 µM]	-3%	-10%[46.1 µM]	1%	-14%	/
CCOc1cc(C(=O)NC(=S)Nc2nc(C)cc(C)n2)cc(OCC)c1OCC	5%	/	/	4%	/	2%	-28%	/
COc1ccc(N(CC(=O)NCCSCc2ccco2)S(=O)(=O)c2ccc(C)cc2)cc1	-3%	/	?	9%	?	2%	40%[activator]	/
CC(=O)Nc1ccc(S(=O)(=O)NC(C(=O)O)C(C)O)cc1 (stereo not drawn)	-1%	/	/	-8%	/	0%	-24%	/
CN1CC(=O)N(CC(=O)Nc2ccc(N(C)C)cc2)c2ccccc2C1=O	2%	-8%	1%	17%	7%	/	-8%	8.2%
CC1CCN(C2(O)C(=O)Nc3ccc([N+](=O)[O-])cc32)CC1 (stereo not drawn)	?	-3%	2%	19%	0%	2%	-20%	5.2%
COc1ccc(C(=O)NCC(c2ccc(N(C)C)cc2)N2CCCC2)cc1 (stereo not drawn)	/	3%	/	/	-4%[46.1 µM]	/	-25%	0.3%
CCc1ccc(C(=O)NC(C(=O)NCC2CCCO2)C(C)C)cc1 (stereo not drawn)	-3%	/	-8%[46.1 µM]	5%	?	0%	-3%	/
O=C(CCCCn1c(=O)c2ccccc2n(CC(=O)NC2CCCC2)c1=O)NCc1ccco1	11%	0%	9%[46.1 µM]	15%	15%	2%	-3%	2.5%
O=c1cc(CN2CCN(c3ccccc3F)CC2)c2cc(O)c(-c3ccccc3)cc2o1	13%	7.9µM*	?	5%	4%	-4%	-3%	-3.5%
O=C(Nc1cccc(OCc2cc(=O)n3ccccc3n2)c1)Nc1cccc(C(F)(F)F)c1	/	-10%	/	/	1%[46.1 µM]	/	2%	2.6%
O=C(CCCNC(=O)/C(=C\c1ccc(F)cc1)NC(=O)c1ccccc1)OCc1ccccc1	-1%	12%	7%	6%	-30%	3%	-23%	-1.9%
CC(Oc1ccccc1F)C(=O)NNC(=O)CC(C)c1ccccc1 (stereo not drawn)	/	/	5%	6%	?	-6%	14%	/
COc1ccccc1CNC(=O)C1CCN(S(=O)(=O)c2c(C)noc2/C=C/c2c(C)cc(C)cc2C)CC1	/	5%	/	/	27%[46.1 µM]	/	-13%	-3.0%
Cc1cc(C)n(CCN(C)C(=O)CCc2nnc(-c3ccc4c(c3)OCO4)o2)n1	3%	/	-4%[46.1 µM]	-8%	4%[46.1 µM]	1%	12%	/
CC(=O)NC(=S)Nc1ccc(NC(=O)COc2ccc(Cl)cc2)cc1	-3%	-25%	-8%	-2%	4%	8%	?	0.7%
O=C(N=C1SC2CS(=O)(=O)CC2N1c1ccc(F)c(Cl)c1)C1CC1 (stereo not drawn)	4%	/	/	33%	/	5%	-8%	/
CCOC(=O)C1CCCN(C(=O)c2cc3c(-c4cccc(OC)c4)nn(C)c3s2)C1 (stereo not drawn)	-69%	?	?	-16%	?	-15%	?	-12%
CCS(=O)(=O)Nc1cc(-c2cn3ccc(C)cc3n2)ccc1C	/	4%	?	/	?	/	34%[activator]	-0.8%
Cc1cc(C)nc(/N=C(/NC(=O)c2ccccc2)Nc2ccccc2)n1	4%	3%	?	2%	14%	9%	0%	0.7%
COc1cnc(-c2ccccn2)nc1Sc1ccc(Cl)cc1	6%	2%	?	-9%	?	?	8%	13%
Cc1ccc(Cl)cc1NS(=O)(=O)Cc1ccccc1	-2%	/	?	-6%	-3%	7%	6%	/
COCCNC(=O)C(=O)NNS(=O)(=O)c1ccc2ccccc2c1	2%	/	-1%[46.1 µM]	1%	19%	-3%	-1%	/
CCN1CCN(CC(=O)Nc2c(OC)cccc2OC)CC1	9%	/	4%	-20%	?	0%	2%	/
CC(/C=N/NC(=O)c1cc(C(C)C)[nH]n1)=C\c1ccccc1	16%	-4%	?	-4%	?	-15%	-7%	-4.0%
COc1ccc(NC(=O)CN(C)C(=O)CCNS(=O)(=O)c2ccc(Br)cc2)cc1	-8%	/	-10%	3%	-7%	3%	12%	/
COc1ccc(S(=O)(=O)N(CC(=O)N2CCN(c3ccccc3OC)CC2)c2ccccc2)cc1	?	?	?	27%	?	4.5µM*	?	-2.7%
O=C(O)CCC(=O)N1N=C(c2ccccc2)CC1c1cccs1 (stereo not drawn)	-4%	/	6%[46.1 µM]	6%	2%	0%	-11%	/
Brc1cccc(-c2nc(-c3ccncc3)no2)c1	-6%	-3%	?	-19%	9%	-9%	-14%	-0.5%
COc1ccc(/C(N)=N/OC(=O)c2ccc(C)c([N+](=O)[O-])c2)cc1	-2%	-15%	1%	-5%	3%	8%[6.58 µM]	18%	2.4%
COc1cc(OC)cc(C(=O)NCC(=O)Nc2ccc(C)c(Cl)c2)c1	0%	/	?	-3%	-22%[46.1 µM]	-2%	-3%	/
COc1cc(OC)c(C(=O)Nc2cccnc2)cc1OC	-8%	/	2%	-11%	0%	-3%	1%	/
COc1ccc(NC(=O)CSc2nc(-c3cccc(C)c3)[nH]c2-c2ccccc2)cc1OC	/	5%	-26%[46.1 µM]	/	-21%[46.1 µM]	/	0%	-4.1%
CCCn1c(=N)n(CC(O)COc2ccc(C)cc2)c2ccccc21 (stereo not drawn)	-1%	/	?	-7%	?	0%	?	/
O=C(COC(=O)c1cc([N+](=O)[O-])ccc1NCCO)c1ccccc1	-17%	-4%	?	-1%	12%	-6%	-21%	-3.1%
O=C(c1cc2ccc([N+](=O)[O-])cc2oc1=O)N1CCOCC1	/	/	7%[46.1 µM]	8%	7%[46.1 µM]	-1%	3%	/
Cc1cc(=O)oc2cc(OCC(=O)OCC(=O)Nc3ccc(C(C)C)cc3)ccc12	-21%	28%	18%[46.1 µM]	-9%	3%	-2%	8%	-5.7%
CCOC(=O)C1CCN(C(=O)CN2C(=O)c3ccccc3S2(=O)=O)CC1	/	/	17%[46.1 µM]	-13%	12%	-6%	21%	/
O=C(NC(=S)Nc1ccc(F)cc1)C1CCCCC1	12%	/	25%[46.1 µM]	-15%	-23%[46.1 µM]	6%	22%	/
Cc1ccc(CCNC(=O)c2ccc(CSCc3ccc(C)cc3)o2)cc1	/	-25%	/	/	-21%[46.1 µM]	/	?	-2.4%
Cc1ccc(NC(=O)C2CCN(S(=O)(=O)c3cccc4nonc34)CC2)cc1C	/	-7%	/	/	2%[46.1 µM]	/	-6%	0.0%
O=C(c1cc(COc2cccc(C(F)(F)F)c2)on1)N1C[C@@H]2CCC[C@H]1C2	-62%	/	8%	-2%	-22%	-5%	-9%	/
CCS(=O)(=O)NCCc1csc(-c2cccnc2)n1	-11%	1%	/	-1%	/	0%	-17%	1.0%
CN1C(=O)C2(C(C#N)=C(N)N(c3cc(Cl)cc(Cl)c3)C3=C2C(=O)CC(C)(C)C3)c2ccccc21 (stereo not drawn)	-1%	?	-25%	-10%	-2%	/	-4%	3.3%
O=C(CN1C(=O)c2ccccc2C1=O)N1CCN=C1c1ccccc1	-2%	/	11%	-7%	?	-2%	0%	/
C=CCn1c(SCc2c(C(=O)OC)sc(N)c2C(=O)OC)nnc1-c1ccc(Cl)cc1	12%	-6%	?	2%	-28%	-5%	-12%	-7.2%
O=C1Nc2ccccc2N(O)N1c1ccc(S(=O)(=O)N2CCOCC2)cc1	5%	-5%	?	3%	4%	7%	-11%	1.1%
CCOC(=O)Cc1nnc(NCc2ccccc2)c2ccccc12	14%	/	/	5%	/	-1%	-22%	/
CCOC(=O)CSc1nc2ccccc2c(=O)n1CC1CCCO1 (stereo not drawn)	0%	1%	6%	-6%	-24%	-1%	-19%	-1.3%
Cc1ccc(-c2cc(C(=O)N/N=C/c3c[nH]c4ccccc34)n[nH]2)o1	9%	-4%	-1%	-3%	/	-5%	7%	-8.2%
CC(C)CN1C(=O)NC(NC(=O)c2cccnc2)(C(F)(F)F)C1=O (stereo not drawn)	0%	-1%	19%	-6%	22%	-5%	-16%	-2.0%
CCOC(=O)C1CCN(Cc2ccc(O)c(OC)c2)CC1	15%	-6%	5%	-10%[3.69 µM]	1%	0%	-10%	0.9%
